ClpP mod – qHTS Assay for Activators of ClpP. AID 651965, 2013. actives 1.9% (n = 340,000). purified B. subtilis ClpP, FRET peptide cleavage, 20 min. Potency, µM (top dose mostly 57.5 µM), for the others: at the highest dose activity change, negative = active. ATP-dependent Clp protease proteolytic subunit (Bacillus subtilis (strain 168)), P80244; active = well fitted falling curve with a large enough effect; inconclusive = small, poorly fitted or top-dose-only effect; inactive = no such curve, though single readings can be large or run the other way; further: potency means the concentration at half of the fitted maximal effect; the source files actives as falling curves though it sought activators and does not explain the sign; nearly all actives have a fitted effect of over 65% in size; many hits overshoot -100%
Target sequence (P80244 whole entry, looked up): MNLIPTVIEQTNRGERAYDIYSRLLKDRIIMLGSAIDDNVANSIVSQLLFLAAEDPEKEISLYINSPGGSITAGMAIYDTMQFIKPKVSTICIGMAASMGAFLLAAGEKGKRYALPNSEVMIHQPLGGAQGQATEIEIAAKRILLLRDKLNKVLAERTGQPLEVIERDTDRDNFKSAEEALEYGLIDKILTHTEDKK
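ClpP 10 microg/mL final, pH 8 Tris/KCl buffer with BSA, glycerol, Tween-20; compound pinned in; FRET-FV substrate; RT 20 min; Ex320/Em430; ΔFRET vs ADEP 5.8 microM, DMSO, no enzyme.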
PINK1 modulator – modulators of PINK1 expression. Potency, µM (doses to about 76.6 µM), inactives show top-dose activation (PINK1 increase), usual class: activators. actives 0.2% (n = 410,000). PINK1 immunofluorescence, high-content cytometry, 24 h; active = well fitted activation curve with a large enough effect; inconclusive = small, poorly fitted or top-dose-only effect; inactive = flat fitted curve, though single readings scatter; cell line not stated here;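 further: potency means the concentration at half of the fitted maximal effect; % of control where 0% means no effect; nearly all actives have a fitted effect of over 65% in size; a mitochondrial uncoupler was the plate control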
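PINK1 protein level read as immunofluorescence by microplate cytometer in a fixed, stained stable cell line after 24 h exposure to five compound concentrations, with CCCP as control.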
gsp antagonist – antagonizes gsp, the McCune-Albright syndrome mutation. actives 0.4% (n = 340,000). gsp-mutant cells, cAMP HTRF, 30 min; control for the full effect not named in the record. Potency, µM (series often up to 76.9 µM), without a hit: at the top dose activity change, negative = inhibition, hits mostly inhibitors. AID 624288; active = falling curve of any shape with a large fitted effect; inconclusive = falling curve, mostly with a smaller effect; inactive = flat or rising curve; cell line not stated here;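 further: intracellular cAMP measured with PDE inhibitor Ro 20-1724 present during compound exposure; potency means the concentration at half of the fitted maximal effect; on the % scale 0 is the no-effect control and ±100 the full control effect; nearly all actives have a fitted effect of over 65% in size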
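G418-selected cells were plated in DMEM/10% FBS for 16-24 h at 37C, then treated with compounds plus the PDE inhibitor […] (300 uM solution added) for 30 min at 37C. Intracellular cAMP was measured by HTRF after 30 min lysis at room temperature.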
Menin MLL FP FL – menin-MLL binding inhibition, fluorescein peptide; Fluorescence polarization, fluorescein-MLL peptide displacement from menin; FP activity change, % at 61.4 µM; 290,000 tested, under 10 active; AID 1766; inconclusive = falling polarisation curve, or a change in total fluorescence; inactive = total fluorescence flat and polarisation flat or rising; no compound was filed as active; the % refers to the polarisation; negative = inhibition;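 further: % of control where 0% means no effect; inhibitors lower the polarisation; unlabelled MLL peptide was the positive control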
Sfp inh – Sfp phosphopantetheinyl transferase inhibition. Q9F4F7. Biochemical Sfp PPTase activity, qHTS. Potency, µM, without a hit: max response, negative = inhibition, most hits filed as inhibitors. actives 3.5% (n = 310,000). AID 1490; active means well fitted inhibition curve with a large enough effect; inconclusive means small, poorly fitted or top-dose-only effect, or another doubt; inactive means no such curve, though single readings can be large or run the other way;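 further: the enzyme is Sfp with the accession as filed and its product quenches rhodamine fluorescence; potency means the concentration at half of the fitted maximal effect; 0% = enzyme reaction without inhibitor and -100% = no enzyme wells; top concentration of the series not given in the record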
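Sfp 15 nM + cpd, 15 min RT; start w/ rhodamine-CoA 5 uM, BHQ-2-YbbR 12.5 uM (final); 50 mM Hepes pH 7.6, 10 mM MgCl2, 0.01% NP-40, 0.01% BSA; read 525/598 nm at 0 and 30 min.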
gsp ag – gsp mutant agonism. gsp mutant cells, cAMP HTRF, 30 min; control for the full effect not named in the record. Potency, µM (top dose mostly 76.9 µM), for inactives: at the top dose activation (cAMP increase), most hits filed as activators. actives 0.13% (n = 340,000). AID 624287; active = well fitted activation curve with a large enough effect; inconclusive = small, poorly fitted or top-dose-only effect, or another doubt; inactive = no such curve, though single readings can be large or run the other way; cell line not stated here;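 further: phosphodiesterase inhibitor Ro 20-1724 added with compounds to block cAMP breakdown; potency means the concentration at half of the fitted maximal effect; nearly all actives have a fitted effect of over 60% in size; about a fifth of the inactives were tested at one dose only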
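Cells in DMEM/10% FBS with G418 were pretreated with compounds in DMSO plus […] (300 uM stock) for 30 min at 37C. cAMP was measured by HTRF (cAMP-d2 plus anti-cAMP antibody-K) after 30 min at room temperature.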
D2 agonist – human D2 receptor agonism in beta-arrestin assay; DiscoveRx PathHunter D2 beta-arrestin, luminescence, 90 min; 100% = 57 uM dopamine signal; AID 624465; activation, % (concentration not given with the values); P14416; actives 0.084% (n = 360,000); in the data active = activation above about 40%; inconclusive = about 15% to 40%; inactive = below about 15%; further: compound concentration not given in the record; the text of the record calls up to 30% inactive
Target sequence (P14416 whole entry, looked up): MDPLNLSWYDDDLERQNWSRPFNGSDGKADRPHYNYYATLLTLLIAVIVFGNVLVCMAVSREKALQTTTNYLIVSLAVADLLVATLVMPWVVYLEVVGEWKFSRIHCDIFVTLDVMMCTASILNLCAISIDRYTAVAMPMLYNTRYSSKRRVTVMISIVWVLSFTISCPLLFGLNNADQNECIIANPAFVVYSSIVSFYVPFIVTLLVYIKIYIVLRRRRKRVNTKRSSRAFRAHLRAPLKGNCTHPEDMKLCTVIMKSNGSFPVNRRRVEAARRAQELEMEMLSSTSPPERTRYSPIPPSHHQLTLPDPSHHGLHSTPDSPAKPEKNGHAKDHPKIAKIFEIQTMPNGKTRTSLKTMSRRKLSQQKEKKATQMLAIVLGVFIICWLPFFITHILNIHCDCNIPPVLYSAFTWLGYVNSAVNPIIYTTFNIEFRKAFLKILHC
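Agonist mode: compounds alone added to overnight-plated D2 PathHunter cells for 90 min at 37 C, with 57 uM final dopamine (EC100) defining full response. Beta-arrestin recruitment detected by chemiluminescent reagent, read after 1 h at ambient temperature.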
An asterisk follows results filed as active; ? = inconclusive; nt = no result given; & = joins results of further samples; [ ] = dose if it differs, or a comment.

canonical_smiles,gsp antagonist,ClpP mod,D2 agonist,PINK1 modulator,gsp ag,Sfp inh,Menin MLL FP FL
O=C(OCn1nnc2ccccc2c1=O)c1cccnc1Cl,-4%,-0.1%,-2.9,1.5%[38.3 µM],5%,11%,0.3
Cc1ccccc1N=C1c2cc([N+](=O)[O-])ccc2-c2ncccc21,7%,-4.0%,9.3,0.1%,13%,-14%,-0.7
COC(=O)c1ccc2c(c1)NC(=O)C(N(CC(C)C)CC(C)C)S2 (stereo unspecified),12%,nt,-0.4,5.1%,4%[15.4 µM],-12%,14
Cc1ccc(CNC(=O)C2CC2c2ccccc2)cc1 (stereo unspecified),5%,-1.3%,-1.0,3.8%,?,5%,10
COc1cc(NC(=O)c2ccco2)c(OC)cc1NC(=O)CCC(=O)Nc1cc(C)cc(C)c1,-9%,9.0%,-0.6,8.6%,-11%,-7%,4.8
Cc1cc(-c2csc(N)n2)c(C)n1-c1ccccc1,-1%,-0.1%,1.7,-0.5%,-87%[inhibitor],-93%,?
Cc1onc(-c2ccccc2Cl)c1C(=O)Nc1nn[nH]n1,-4%,0.4%,-1.1,6.0%[38.3 µM],-45%[inhibitor],-8%,-0.9
Cc1cccc(N2CCN(S(=O)(=O)c3ccc4c(c3)OCCO4)CC2)c1C,-25%,nt,0.0,-1.2%,-25%,11%,4.5
O=C(OCC(=O)N1CCc2ccccc21)c1cc(S(=O)(=O)N2CCOCC2)ccc1F,-4%,0.9%,-4.0,1.9%,-11%,nt,nt
O=C(Nc1nc2c(s1)COc1ccccc1-2)c1cccs1,-34%,-7.8%,-1.3,20%,?,-17%,2.9
COc1ccc(NC(=O)COc2ccc(C(=O)NC3CCCc4ccccc43)cc2OC)cc1 (stereo unspecified),7%,nt,-0.7,2.3%,8%,-8%,7.2
CCCCCCc1nc(C(N)=O)c2[nH]c(=O)n(-c3ccccc3F)c2n1,-9%,4.1%,-1.4,3.3%,?,14%,-0.6
COc1ccc(NC(=O)CSc2nnc(Cc3ccccc3)c(=O)n2N)c(OC)c1,-3%,-0.3%,1.4,0.7%,-4%,nt,nt
CCN(CC(=O)Nc1ccccc1C(F)(F)F)C(=O)CCc1nc2ccccc2c(=O)[nH]1,4%,-3.8%,1.7,0.8%,-27%,0%,8.1
CCn1c(SCc2cc(=O)[nH]c3ccccc23)nc2c1c(=O)n(C)c(=O)n2C,-1%,-1.8%,-2.9,-1.7%[38.3 µM],?,nt,nt
COc1ccc(CCNC(=O)CCN2C(=O)c3cccc4cccc(c34)C2=O)cc1OC,-3%,-5.5%,-0.8,3.9%,-46%[inhibitor],5%,-0.6
C#CCOCCOCCOCCNc1nc(N2CCN(C(=O)C(Cc3ccc(O)cc3)n3cc(C(N)C(C)CC)nn3)CC2)nc(N2CCN(C(=O)C(Cc3ccc(O)cc3)n3cc(C(N)C(C)CC)nn3)CC2)n1 (stereo unspecified),8%,2.4%,-1.1,0.4%,nt,-3%,-0.8
CCOc1ccc(-c2c(C(=O)N/N=C/c3ccoc3)nnn2-c2nonc2N)cc1,3%,-6.3%,0.2,3.2%,1%,9%,-1.9
Cc1ccc(N(C(=O)c2ccco2)C2C=CS(=O)(=O)C2)cc1 (stereo unspecified),9%,nt,0.7,-0.2%,-39%[inhibitor],16%,6.1
COc1ccc(C(CCNCc2ccccc2)c2ccc(F)cc2)cc1 (stereo unspecified),-3%,-0.4%,-7.3,-2.7%,-4%,3%,4.5
COc1ccccc1C(=O)NC(=S)NC12CC3CC(CC(C3)C1)C2,1%,2.0%,-6.5,13%,2%[15.4 µM],12%,nt
CCOC(=O)C1=C(c2ccccc2)NC(=O)NC1c1ccc(N(C)C)cc1 (stereo unspecified),7%,-0.8%,0.6,6.7%[38.3 µM],?,-24%,4.2
COc1ccc(NC(=O)C2CC(=O)N/C(=N/NC(=O)c3ccc(Cl)cc3)S2)cc1 (stereo unspecified),5%,nt,-2.9,1.5%,-25%[15.4 µM],31%[activator],-0.9
CN1CCN(c2ncnc3c2ncn3[C@H]2CN(Cc3ccc(Cl)cc3)C[C@@H](CO)O2)CC1,nt,-1.3%,-7.0,0.9%,nt,nt,nt
O=C1c2ccccc2NC(c2cccc(O)c2)N1Cc1ccco1 (stereo unspecified),8%,3.8%&3.2%,-3.8,1.1%&0.5%,?,-7%,1.9
CS(=O)(=O)N1CCc2cc(C(=O)N3CCN(c4ccccc4)CC3)ccc21,13%,1.0%&-5.4%,-0.5,1.7%&-0.5%,-3%[15.4 µM],-3%,0.3
CCc1cc2c(C)cc(=O)oc2cc1OC(=O)C1CCCN1C(=O)OC(C)(C)C (stereo unspecified),-3%,32%,-4.2,1.9%,-4%,-7%,-2.9
COCc1nc(-c2ccc(-c3ccc(C)cc3)nc2OC)no1,?,35µM*,-4.2,-2.0%,-2%,-14%,1.8
CC(C)C(C)NC(=O)CSc1nc2scc(-c3ccco3)c2c(=O)n1-c1ccccc1 (stereo unspecified),-7%,-21%,-1.1,?,1%,4.5µM*,18
CC(C)C[C@@H](CSc1ccccc1)N1CCN(C)CCC1=O,4%,0.2%&-2.7%,-0.4,1.8%,?,1%,-3.7
Cc1ccc(Cc2c(C(C)(C)C)nc3cc(C)c(Br)c(C)n23)cc1,nt,-4.9%,-2.8,?,nt,nt,nt
CCOC(=O)c1c(NC(=O)C2C3C=CC(C3)C2C(=O)O)sc2c1CCC(C)C2 (stereo unspecified),-24%,-20%,-3.7,-1.7%,3%,-2%,6.2
O=C(c1cc(C(=O)N2CCN(c3ccc(F)cc3)CC2)cc([N+](=O)[O-])c1)N1CCN(c2ccc(F)cc2)CC1,-7%,-2.1%,2.4,-0.1%,-8%[15.4 µM],22%,2.1
c1ccc2c(c1)CNc1ccccc1-2,1%,-2.4%,-6.5,1.6%,2%,nt,nt
CCOC(=O)c1nc(Nc2ccc(C(=O)OC)cc2)c2ccccc2n1,?,?,-2.4,-0.9%&-1.0%,-17%,-7%,0.2
Cc1[nH]c(=O)[nH]c(=O)c1S(=O)(=O)N(CC(C)C)CC(C)C,4%,nt,2.7,-1.7%,13%,15%,-3.6
CCCCC1CCC(C(=O)N2CCOCC2)CC1 (stereo unspecified),-10%,nt,-5.2,-0.2%,-9%[15.4 µM],-6%,5.0
O=C(c1ccc2c(c1)C(=O)N(Cc1ccco1)C2=O)N1CCOCC1,8%,1.2%,3.6,4.3%[38.3 µM],?,?,0.0
CC(C)(C)c1cc(NC(=O)NN2CCOCC2)nn1-c1c(Cl)cc(Cl)cc1Cl,-3%,-3.2%,-11,0.2%,?,-2%,-2.1
COC(=O)c1ccc(OC(=O)c2nn(C)cc2Cl)c(OC)c1,-2%,-2.4%,-0.8,-4.7%,-39%[inhibitor],-3%,0.2
CC(C)Oc1ccc(C2CCC(=O)NC2=O)cc1 (stereo unspecified),20%,4.2%,-1.1,-0.6%,16%,12%,2.3
C[C@@H]1CN([C@H](C)CO)S(=O)(=O)c2ccc(C#Cc3ccccc3F)cc2O[C@H]1CN(C)C(=O)c1ccc2c(c1)OCO2,nt,?,?,-0.8%,-3%,nt,nt
CC(C)NC(=O)CSc1ccccc1C(=O)NCc1ccc2c(c1)OCO2,0%,-1.7%,-1.0,-3.2%,6%,12%,-1.9
CCc1nc2ccc(C(=O)NCCC(C)C)cn2c1N(CCN(C)C)CC1CC1,nt,-10%,-2.3,-1.0%,nt,nt,nt
Cn1c(SCc2cnc(-c3ccccc3)s2)nnc1C1COc2ccccc2O1 (stereo unspecified),-4%,-0.4%,-3.3,-1.2%,-17%,-8%,0.6
Cc1ccc(-c2nc3cc(C)c(Br)c(C)n3c2Cc2ccccc2)cc1,nt,-6.6%,-6.0,14%,nt,nt,nt
N#CCCn1nc(-c2ccc([N+](=O)[O-])cc2)cc1Nc1ccccc1NC(=O)C(F)(F)F,-24%,-3.2%,-7.3,6.2%,25%,10%,0.7
CC(C)C(c1nnnn1Cc1ccc(F)cc1)N1CCC(C(N)=O)CC1 (stereo unspecified),3%,nt,-1.6,0.3%,-2%[15.4 µM],3%,-1.9
CC(C)CC(C(=O)OCC(=O)Nc1ncc(Cl)cc1Cl)N1C(=O)c2ccccc2C1=O (stereo unspecified),-23%,-1.9%,-5.0,-0.1%,-28%,11%,-1.0
COc1cc(OC)c(OC)cc1CNC(=O)c1cc(=O)c2ccccc2o1,6%,nt,-2.2,1.3%,-6%[15.4 µM],4%,1.5

The list continues:
canonical_smiles,gsp antagonist,ClpP mod,D2 agonist,PINK1 modulator,gsp ag,Sfp inh,Menin MLL FP FL
CC1CN(C(=O)CNC(=O)COc2ccccc2)CC(C)O1 (stereo unspecified),14%,0.8%,-1.4,1.1%,20%,nt,nt
CC(C)(C)NC(=O)C(c1ccccc1)N(C(=O)c1ccco1)C1CC1 (stereo unspecified),1%,1.7%,-2.3,1.0%,15%,22%,-1.9
C/C(N)=C(/C#N)C(=O)CSc1nc2ccc(C)cc2[nH]1,-7%,-3.3%,1.0,-1.9%[38.3 µM],30%,1%,6.0
COC(=O)N/N=C/c1ccc(-c2cc(Cl)ccc2Cl)o1,-10%,-5.8%,-3.3,4.4%,-9%,0%,6.1
O=C(C[n+]1ccccc1)N/N=C/c1cc(Br)ccc1F,11%,0.8%,-4.7,-0.1%,5%,nt,nt
CCN(CC)C(=O)N1CCc2ccccc2C1CN1C(=O)c2ccccc2C1=O (stereo unspecified),-6%,0.7%,-3.2,0.8%,6%,nt,nt
CCCc1cc(C(=O)Nc2ccc(C#N)cc2)no1,1%,nt,-6.3,2.2%,4%[15.4 µM],6%,-3.9
Cc1ccc(S(=O)(=O)CCC(=O)N(CCCN2CCOCC2)c2nc3ccccc3s2)cc1,-25%,1.9%,-5.2,18%,3%,nt,nt
COc1ccc(C(=O)NNC(=O)CN2CCN(c3nc(-c4ccccc4)cs3)CC2)cc1,3%,1.3%,-1.3,8.8%,-28%,-23%,0.0
CCOC(=O)C1=C(C)NC(=O)NC1c1ccccc1 (stereo unspecified),11%,-0.8%,-2.7,1.0%,nt,9%,1.4

Screening data from PubChem BioAssay.
